Mtb bLac sens = beta-lactam sensitization of Mtb H37Rv; 330,000 compounds, 0.27% hits; inhibition, % at 25 µM; M. tuberculosis H37Rv growth with meropenem, percent inhibition; hits of this screen are not shown here;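 active = about 74% or more and at least 40 points above the plate without the antibiotic, then above 30% in a dose series; inconclusive = first-round hits that could not be retested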;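 also: growth measured after seven days incubation then overnight dye step; 0% = bacteria only wells and 100% = bacteria with antibiotic; twin plates without the antibiotic show which effects depend on it; some results filed as inactive read as strong as hits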
Mtb H37Rv = M. tuberculosis H37Rv growth inhibitors, H37Rv strain (AID 1626). M. tuberculosis H37Rv growth inhibition; higher % means a stronger effect. inhibition, % at 10 µM, or IC50 in µM where a hit was titrated. 220,000 compounds, 0.95% hits;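 active = confirmed in a dose series; inconclusive = inhibition above 80% but not taken into the dose series; inactive = below 80% or under 30% at every dose of the series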;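 also: bacteria incubated seven days before Alamar blue readout; 0% = bacteria only wells and 100% = bacteria with antibiotic wells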
RecA splice inh = inhibitors of M. tuberculosis RecA intein splicing. P9WHJ3. cell-free RecA intein splicing, fluorescence. inhibition, %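 (about 9 µM by stock and volumes)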. 290,000 compounds, 0.75% hits; in the data active = inhibition above about 30%; inconclusive = no clear call, values can overlap the other calls;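 also: 0% = vehicle wells and 100% = reference inhibitor control wells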
Target sequence (P9WHJ3 whole entry, looked up, canonical isoform): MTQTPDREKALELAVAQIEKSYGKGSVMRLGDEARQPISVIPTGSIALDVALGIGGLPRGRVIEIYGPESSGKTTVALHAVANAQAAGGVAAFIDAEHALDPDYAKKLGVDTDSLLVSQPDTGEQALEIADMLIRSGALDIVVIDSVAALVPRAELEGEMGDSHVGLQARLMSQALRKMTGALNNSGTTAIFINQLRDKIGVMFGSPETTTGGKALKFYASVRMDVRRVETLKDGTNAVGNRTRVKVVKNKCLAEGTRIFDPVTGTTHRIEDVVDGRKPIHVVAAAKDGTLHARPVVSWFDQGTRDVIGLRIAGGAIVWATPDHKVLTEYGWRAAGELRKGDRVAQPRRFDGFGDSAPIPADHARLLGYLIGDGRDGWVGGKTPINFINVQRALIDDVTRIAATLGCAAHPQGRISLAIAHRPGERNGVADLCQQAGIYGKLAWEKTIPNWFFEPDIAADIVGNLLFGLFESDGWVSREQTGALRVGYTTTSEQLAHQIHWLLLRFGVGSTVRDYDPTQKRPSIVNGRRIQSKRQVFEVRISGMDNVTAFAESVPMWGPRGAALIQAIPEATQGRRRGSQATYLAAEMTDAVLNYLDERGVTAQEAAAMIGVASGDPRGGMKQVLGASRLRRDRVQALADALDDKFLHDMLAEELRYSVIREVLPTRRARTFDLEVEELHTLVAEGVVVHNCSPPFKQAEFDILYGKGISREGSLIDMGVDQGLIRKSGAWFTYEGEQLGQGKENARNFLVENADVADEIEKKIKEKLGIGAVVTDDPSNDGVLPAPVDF
Arbovirus anti = antivirals against arbovirus infection. arbovirus infection cell-based antiviral screen. inhibition, % at 10 µM. 200,000 compounds, 0.37% hits;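 active = inhibition from about 30%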;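 also: bluetongue infection of BSR cells; cell survival read as ATP light after 72 h; 0% = infected wells without compound and 100% = uninfected wells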
YopH inh = inhibitors of Yersinia enterocolitica YopH tyrosine phosphatase | fluorescence Ex485/Em525 | inhibition, %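 (about 10 µM by stock and volumes)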 | 140,000 compounds, 0.16% hits | AID 898;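 active = inhibition of 50% or more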;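 also: controls were vehicle for no effect and minimum signal wells for full effect; inactives centre near -20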
Arbovirus anti repeat = recorded beside Arbovirus anti, whose call it bears; inhibition, %; measured here: 10K subset replicate screen; many hits read low in the repeat;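 first of two repeat runs on a subset; 0% = infected and 100% = uninfected wells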
An asterisk follows results filed as active; ? = inconclusive; nt = not tested or not shown. Some of the compounds tested (hit frequency here may not be typical).

SMILES	Mtb bLac sens	Mtb H37Rv	RecA splice inh	Arbovirus anti	YopH inh	others
COc1cc(Cl)c(C)cc1NC(=O)c1ccc(NS(=O)(=O)c2ccc(F)c(F)c2)cc1	-1	2%	-1.9	5	nt
O=C(Nc1nnc(SCc2ccc(Cl)cc2Cl)s1)C1COc2ccccc2O1 (stereo not given)	?	nt	nt	31*	5
COc1cccc(C(=O)NC(=O)Nc2cc(C)on2)c1	-4	3%	-1.0	2	nt
O=C(c1ccc(Cl)s1)N1CCCC(N2CCN(c3ccc(F)cc3)CC2)C1 (stereo not given)	10	nt	-2.4	nt	nt
N#CC(C#N)=Cc1ccccc1OCc1ccccc1	-11	-3%	11	nt	nt
O=C(C(=O)N1CCN(c2ccccc2F)CC1)c1c[nH]c2ccccc12	-6	3%	-1.8	8	nt
CC1CCCCC1NC(=O)COC(=O)c1ccc(S(=O)(=O)NCc2ccco2)cc1 (stereo not given)	4	0%	0.5	2	-2
CCCCC[n+]1ccn(-c2nc3ccccc3nc2[N-]S(=O)(=O)c2ccccc2)c1	-15	-3%	-32	nt	nt
COc1ccc(C(=O)Nc2ccc(NC(=O)C3CC3)cn2)cc1	-5	nt	3.6	nt	nt
CC1CCCC(NS(=O)(=O)c2cc(Br)cnc2N)C1C (stereo not given)	5	nt	2.5	nt	nt
COc1ccc(N2CC(C(=O)Nc3nc4ccccc4s3)CC2=O)cc1 (stereo not given)	2	15%	-1.4	nt	nt
COc1ccc2cc(C(=O)C3CCCN(C(=O)CSc4nnc(C)o4)C3)ccc2c1 (stereo not given)	-2	4%	-0.2	4	nt
Cc1ccc(NC(=O)CSCc2c(C)noc2C)cc1C	1	10%	2.5	-3	-50
COC(=O)c1cc(Cl)nc2ccccc12	-6	1%	-2.0	0	nt
OCCC1CN(Cc2cnc(-c3ccccc3)s2)CCN1C1CCCC1 (stereo not given)	2	6%	-3.8	-13	nt
O=C(Nc1cc(C(F)(F)F)ccc1N1CCOCC1)C1Cc2ccccc2CN1C(=O)c1ccco1 (stereo not given)	0	1%	8.9	4	-41
CCOC(=O)CC(=O)CSc1nc2nc(C)cc(C)n2n1	-5	2%	0.2	3	-12
NC(=O)NCC(c1ccccc1)C1CCCCC1 (stereo not given)	-3	nt	3.7	nt	nt
CCOc1ccc(NC(=O)C2C(c3ccccc3)C2(Cl)Cl)cc1 (stereo not given)	1	nt	0.3	nt	nt
COc1cc(C(C(=O)NC2CCCC2)N(Cc2ccco2)C(=O)c2snc(C(N)=O)c2N)cc(OC)c1OC (stereo not given)	-4	nt	0.3	nt	nt
O=C(Nc1ccc(NC(=O)c2ccco2)cc1)c1ccc2c(c1)OCCO2	4	4%	-1.7	-12	nt
O=[N+]([O-])c1ccc(Cl)c(/C=N/N2CCN(Cc3ccccc3Cl)CC2)c1	-2	5%	3.5	11	-26
COc1cc(C(=O)Nc2nc(C)c(Cc3ccc4c(c3)OCO4)s2)cc(OC)c1OC	3	6%	0.9	-7	-24
CN=C(Nc1ccccc1OC)SC1CC(=O)N(c2ccc(C(=O)OC)cc2)C1=O (stereo not given)	44	7%	0.4	6	-20
Cc1onc(-c2ccccc2)c1C(=O)Nc1sc2c(c1C#N)CCC2	25	10%	6.5	-7	-17	Arbovirus anti repeat=-11
SMILES	Mtb bLac sens	Mtb H37Rv	RecA splice inh	Arbovirus anti	YopH inh	others
CC1CN(C(=O)COC(=O)c2ccc(O)cc2)CC(C)O1 (stereo not given)	2	nt	0.7	nt	nt
COCCNC(=S)Nc1ccc(Cl)c(Cl)c1	1	7%	-0.1	3	nt
CN(C)S(=O)(=O)c1ccc(NC(=O)Cc2ccc(S(=O)(=O)N3CCOCC3)s2)cc1	-1	3%	8.0	2	nt
N#Cc1c(Cl)nc(SCc2ccccc2)nc1-c1ccccc1	-4	-3%	nt	28	-38
CC(C)=CCCC(C)NC(=O)NC1CCCCC1 (stereo not given)	-2	3%	1.8	-9	15
Cn1cnc([N+](=O)[O-])c1S(=O)(=O)c1ccc(Cl)cc1	nt	8.3µM*	61*	-33	-28
O=C(C1CC(=O)N(c2ccc(Cl)cc2)C1)N1CCC(c2nc3ccccc3[nH]2)CC1 (stereo not given)	-6	nt	1.5	nt	nt
CCCCCCC(=O)c1c(O)n(-c2ccc(OC)cc2)c(=O)[nH]c1=O (tested in a mixture with another compound)	-5	-2%	2.7	nt	nt
Cc1csc(N)n1	2	-6%	-0.3	0	-58
O=C(Nc1ccc(Cl)cc1)/C(=C/c1ccc([N+](=O)[O-])cc1)c1nc2ccccc2s1	nt	?	nt	-22	nt
COC(=O)Cc1ccc(N(Cc2ccccc2F)S(=O)(=O)c2ccc(Br)cc2)cc1	1	-6%	-1.9	14	2
Cc1cnc(NC(=O)CSc2nnc(C)s2)s1	3	1%	-5.0	2	-18
CCOc1ccccc1/C=C(/NC(=O)c1ccccc1)C(=O)N(CC)CC	?	2%	0.8	-16	-10
Cc1oc2ccc(OC(=O)c3cccs3)cc2c1C(=O)OC(C)C	99	2.8µM*	5.4	1	-41
COc1ccc([N+](=O)[O-])cc1NC(=O)C(C)OC(=O)C1CCC1 (stereo not given)	-11	nt	-1.4	nt	nt
Cc1ccc(C)c(S(=O)(=O)N2CCN(C(=O)Cc3ccsc3)CC2)c1	-9	nt	1.2	nt	nt
C/C(=N\NC(=S)NCc1ccccc1)c1cccc(Br)c1	nt	-7%	0.3	7	nt
CCOc1cccc(C(=O)Nc2ccc3oc(-c4cccnc4)nc3c2)c1	-3	-1%	-1.5	nt	nt
O=C(COc1ccc(Br)cc1)Nc1ccc(NC(=O)c2ccccc2)cc1	0	nt	-0.1	nt	nt
COc1ccc(C2CC(c3cccs3)=NN2C(=O)c2ccco2)cc1OC (stereo not given)	-1	-8%	nt	nt	nt
COc1ccc(C(C[N+](=O)[O-])c2c(C)cc3ccccn23)cc1 (stereo not given)	-2	-2%	22	-3	nt
CCOC(=O)c1ccc(Nc2nnc(C(C)(C)C)c(=O)[nH]2)cc1	-13	5%	0.1	7	-55	Arbovirus anti repeat=-18
O=c1[nH]c(CS(=O)(=O)c2ccccc2)nc2ccccc12	20	0%	-1.5	2	20
CNc1ccc2nnc(C(F)(F)C(F)(F)C(F)(F)F)n2n1	-2	-2%	3.7	-3	nt
O=C(Cn1[nH]c(=O)c2ccccc2c1=O)OCC(=O)N(Cc1ccccc1)Cc1ccccc1	-9	-8%	-3.4	0	-11

4 entries drawn at random from the list so far, as already listed:
SMILES	Mtb bLac sens	Mtb H37Rv	RecA splice inh	Arbovirus anti	YopH inh	others
COc1ccc(C(C[N+](=O)[O-])c2c(C)cc3ccccn23)cc1 (stereo not given)	-2	-2%	22	-3	nt
COCCNC(=S)Nc1ccc(Cl)c(Cl)c1	1	7%	-0.1	3	nt
O=C(Nc1ccc(Cl)cc1)/C(=C/c1ccc([N+](=O)[O-])cc1)c1nc2ccccc2s1	nt	?	nt	-22	nt
O=c1[nH]c(CS(=O)(=O)c2ccccc2)nc2ccccc12	20	0%	-1.5	2	20

(listing goes on)
SMILES	Mtb bLac sens	Mtb H37Rv	RecA splice inh	Arbovirus anti	YopH inh	others
FC(F)(F)c1cccc(CN2CCC(c3cc(-c4cccs4)n[nH]3)CC2)c1	98	34%	0.1	-35	nt
CCOC(=O)/C(C#N)=C1\CC2CCC1(C)C2(C)C (stereo not given)	-3	-4%	-0.8	-2	nt
O=C(NC(=S)Nc1nc(-c2ccccc2)cs1)c1cccnc1	-3	3%	0.4	-17	nt
O=C(CSCc1ccco1)c1ccc(Cl)s1	23	-4%	5.3	-6	-14
O=C(COC(=O)C1CC1)c1c[nH]c2ccccc12	nt	-1%	-1.1	4	5
CN(C)CCCN(C(=O)c1ccc([N+](=O)[O-])s1)c1nc2cc3c(cc2s1)OCCO3	99	nt	-3.6	nt	nt
COc1ccc(Cc2nnc(NS(C)(=O)=O)s2)cc1	5	8%	-0.7	6	-16
Cc1cc(C)n2c(SCc3c(C)noc3C)nnc2n1	8	2%	nt	1	3
O=C(NCCCN1CCOCC1)c1ccc(/C=C2\Oc3ccccc3N(Cc3ccccc3F)C2=O)cc1	94	nt	-10	nt	nt
COC(=O)N(c1ccccc1)P1(=S)OCCO1	-9	-8%	0.3	-7	-30
Cc1cc(C)c(NC(=O)COC(=O)Cc2ccsc2)c(C)c1	3	2%	-1.9	-1	nt
COc1ccccc1C(=O)Nc1nc(C)cc(C)n1	-5	nt	0.3	nt	nt
O=C(NCc1cccs1)N[C@@H](Cc1ccccc1)C(=O)O	-2	-2%	0.3	-3	-12
CCC(=O)c1ccc(OCC(O)Cn2nc(C)c(Br)c2C)cc1 (stereo not given)	17	nt	-1.4	nt	nt
O=C(NCc1ccco1)C1CCCN(c2nnc(-n3cccc3)s2)C1 (stereo not given)	2	nt	1.5	nt	nt
CCN(CC)S(=O)(=O)c1cc(NC(=O)C2CCN(c3ncnc4sc(C)c(C)c34)CC2)ccc1Cl	3	nt	1.6	nt	nt
COc1ccc2[nH]c(=O)c(CNc3ccc(C)c(C)c3)cc2c1	57	18%	-3.2	-9	-16
O=C(CCN1CCCCC1)NCNC(=O)CCN1CCCCC1	-2	-3%	-2.2	6	-10
CC(=O)Nc1ccccc1OCc1nnc(-c2cccs2)o1	-13	-6%	nt	10	-23
O=C(C1CCCN(c2ncnc3c2nc2n3CCCCC2)C1)N1CCN(c2ccc(Cl)cc2)CC1 (stereo not given)	97	nt	8.3	nt	nt
CC[C@H]1CC2CN3CCc4c([nH]c5ccccc45)C(C(=O)OC)(C2)C13 (stereo not given in full)	-3	1%	13	nt	nt
CCN(CC)CC(C)OC(=O)c1ccccc1Cl (stereo not given)	-5	2%	-0.8	2	nt
O=C(c1cc(-c2cccs2)on1)N1CCCc2ccccc21	3	6%	-0.9	-4	-35	Arbovirus anti repeat=-3
O=C(NCc1nnc(SCC(=O)N2CCN(c3ccccc3)CC2)o1)c1ccccc1	2	nt	-1.3	nt	nt
O=C(CCSCc1ccc(Cl)cc1)NCCc1ccccc1	-3	30%	-1.4	-12	0
SMILES	Mtb bLac sens	Mtb H37Rv	RecA splice inh	Arbovirus anti	YopH inh	others
Cc1ccc(S(=O)(=O)NC(Cc2c[nH]c3ccccc23)C(=O)O)cc1 (stereo not given)	9	-1%	-8.4	nt	-17
COc1ccc(N(C)S(=O)(=O)c2cccc(C(=O)Nc3ccc4c(c3)OCCO4)c2)cc1	-6	5%	12	-12	nt
CC(c1nc2ccccc2o1)N1C(=O)c2ccccc2C1=O (stereo not given)	-7	-10%	0.1	6	38
CCOC(=O)c1cccc(NS(=O)(=O)c2c(C)[nH]c(=O)[nH]c2=O)c1	11	-9%	-0.1	6	-47
CCN(CC)C(=O)CSc1nc2cc(S(=O)(=O)N3CCOCC3)ccc2n1CC	4	nt	3.7	nt	nt
CS(=O)(=O)Nc1nnc(SCC(=O)Nc2cccc([N+](=O)[O-])c2)s1	-8	-2%	0.0	0	-34
CCOC(=O)c1c(C)[nH]c(C(=O)OCC(=O)Nc2ccc(OC)c(Cl)c2)c1C	-4	-9%	4.0	4	-22
O=C(CSc1nncs1)NCc1ccc(F)cc1	-2	2%	1.8	9	nt
CCOc1ccc(CCNC(=O)c2cccc(NC3=NC4CS(=O)(=O)CC4S3)c2)cc1OCC (stereo not given)	2	nt	-5.6	nt	nt
COc1ccc(C)cc1NC(=O)C(Sc1nnc2ccccn12)c1ccccc1 (stereo not given)	-6	-9%	-1.9	-9	-11
COCCN(C(=S)Nc1ccc(OC)cc1)C1CCN(C(C)C)CC1	1	-1%	0.3	6	-19
O=C(NC(NCc1ccccc1)C(Cl)(Cl)Cl)c1cccnc1 (stereo not given)	-3	2%	1.5	6	-32
O=C(O)CCn1c(=S)oc2ccccc21	8	-3%	1.7	-2	-25
CC(=O)NC(=S)Nc1ccc(-c2nc3ccc(C)cc3s2)cc1	54	13%	-4.3	-12	-46
Cc1cccc(N2CN=C3SCC(=O)N3C2)c1	4	3%	-5.3	nt	nt
Cc1cc(C)c2c(=O)n(CC(=O)N3CCC(Cc4ccccc4)CC3)sc2n1	nt	nt	-3.4	-6	-30	Arbovirus anti repeat=-12
Cc1ccc(/C=N/NC(=O)c2nc3nc(C)cc(C)n3n2)cc1	0	-2%	-3.6	-5	-11
COc1cccc(CN2CCN(c3cccc(C(F)(F)F)c3)CC2)c1OC	28	3%	5.6	9	-29
O=C(Nc1ccccc1C(=O)N1CCOCC1)C1COc2ccccc2O1 (stereo not given)	-6	10%	-2.3	5	0
CCc1cc(=O)oc2cc(OCc3ccc(C(=O)O)o3)ccc12	-9	nt	-0.3	nt	nt
O=C(O)c1cc2c(cc1Br)OCCCO2	73	9%	-0.7	5	-33
Cc1ccc(Nc2nc(N)nc(-c3oc4ccccc4c3C)n2)cc1	8	2%	3.1	-7	nt
CCCCC(=O)NC(=S)Nc1cccc(NC(=O)CC)c1	4	-3%	-1.1	-4	-17
Cc1cc(NC(=O)CCC(=O)N(Cc2ccco2)C(C(=O)NC2CCCCC2)c2ccccc2)no1 (stereo not given)	-11	-7%	-4.4	2	-7
